Screens from PubChem BioAssay.
MT1-MMP act inh: blockers of MT1-MMP proenzyme processing, primary screen, HT1080 RFP-PRO-GFP cells, GFP/RFP fluorescence | Matrix metalloproteinase-14 (Homo sapiens), P50281 | GFP/RFP ratio fluorescence, overnight; percent of plate control window, DMSO zero | GFP/RFP ratio change, % at 20 µM | actives 0.061% (n = 360,000) | AID 651647, 2012;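 active = GFP/RFP ratio change of at least 30% with cell ATP level not reduced by more than half and red fluorescence within 50% of control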; note: strong numbers were not always called active
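Assay system: HT1080 cells carrying an RFP-PRO-GFP reporter | Dosing: Single dose of 20 µM compound, 1% DMSO final | Incubation: Cells overnight before dosing, compound overnight, 37 °C, 5% CO2 | Evaluation: GFP/RFP fluorescence ratio | Control set: DMSO and RFP-L50D-GFP cell wells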
eIF4H FP inh: human eIF4H binding inhibitors, primary screen, translation initiation inhibitor project, biochemical, uHTS, fluorescence polarization; Eukaryotic translation initiation factor 4H (Homo sapiens), Q15056; eIF4H fluorescence polarization binding assay; inhibition, % at 35 µM; actives 0.94% (n = 290,000); AID 2012, 2009;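 active = 50% or more with normal probe brightness, or confirmed in later tests; inconclusive = above 50% with abnormal brightness, or retests that disagree; inactive = below 50% or failed in later tests; about a fifth of its hits are not listed in these tables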;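 note: calls also rest on retests at 20 µM and on dose response follow-up; 0% = protein and probe with vehicle and 100% = probe without protein; strong numbers were not always called active; many hits fall short of the cut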
CSC inhib: cancer stem cell viability inhibitors, primary screen, luminescence; AID 2717, 2010; inhibition, % at 7.5 µM; cancer stem cell-like cells viability; actives 1.1% (n = 300,000);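 active = mean at 75% or more and at least half the replicates too; inconclusive = mean and replicates disagree; tested in HMLE shEcad cells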;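 note: 0% = median of negative and 100% = median of positive control wells; the first replicate is given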
Rce1 inhib: yeast Rce1p protease inhibitors, primary screen, biochemical, fluorescence, cell-free homogeneous | CAAX prenyl protease 2 (Saccharomyces cerevisiae (strain ATCC 204508 / S288c)), Q03530 | calls only | actives 0.27% (n = 290,000) | yeast membranes, quenched prenylated peptide cleavage fluorescence;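 active = fall in fluorescence gain of 50% or more versus controls, with final raw signal at or below 3038400; inconclusive = same 50% fall but final raw signal above 3038400; inactive = fall in fluorescence gain under 50%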;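 note: plate controls were neutral control wells for no effect and wells lacking membranes for full effect; tested at 10 µM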
Target sequence (Q03530 whole entry, looked up): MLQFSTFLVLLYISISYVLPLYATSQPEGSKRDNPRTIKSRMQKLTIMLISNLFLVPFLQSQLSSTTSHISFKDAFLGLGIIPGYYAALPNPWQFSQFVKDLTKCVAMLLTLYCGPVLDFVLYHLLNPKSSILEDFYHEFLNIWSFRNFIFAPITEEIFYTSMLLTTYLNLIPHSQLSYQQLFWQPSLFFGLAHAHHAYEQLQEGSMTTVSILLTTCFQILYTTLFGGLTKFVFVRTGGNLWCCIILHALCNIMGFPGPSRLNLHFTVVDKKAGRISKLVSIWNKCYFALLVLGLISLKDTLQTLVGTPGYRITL
HIV Env fusion: inhibitors of HIV-1 Env-driven cell-cell fusion, primary screen, HeLa-JRFL effector, CEM21 target cells, luciferase | inhibition, % at 12.3 µM | actives 1.1% (n = 360,000) | AID 651610, 2012;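 active = mean replicate inhibition score of at least 50 and every replicate individually at or above 50; inconclusive = only one of the two criteria met; inactive = mean below 50 and not all replicates reaching 50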;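 note: 0% = plate neutral controls and 100% = maraviroc near 300 nM; one replicate is shown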
PABP polyA inh: PABP poly(A) RNA binding inhibitors, primary screen, biochemical, fluorescence polarization, uHTS; inhibition, % at 35 µM; actives 1% (n = 290,000); Polyadenylate-binding protein 1 (Homo sapiens), P11940; AID 2014, 2009;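 active = 50% or more with normal probe brightness, or confirmed in later tests; inconclusive = above 50% with abnormal brightness, or retests that disagree; inactive = below 50% or failed in later tests; about a fifth of its hits are not listed in these tables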;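 note: calls also rest on retests at 20 µM and on dose response follow-up; controls were probe without protein and protein plus probe with vehicle; some compounds called inactive have numbers as strong as hits; many hits fall short of the cut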
UUG fidelity: modulators of yeast start codon fidelity, primary screen, whole organism, S. cerevisiae, single point, plate reader. S. cerevisiae UUG-firefly luciferase reporter, luminescence/redox ratio. activity score, % at 18.7 µM. actives 0.13% (n = 350,000). AID 602363, 2012;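 active = replicate mean at a twofold rise or more, about +100% in these data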;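 note: firefly luciferase made from a UUG start codon reports start codon fidelity; reporter light over untreated wells divided by growth signal over untreated wells; some hits fall short of that in this replicate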
MT1-MMP act inh RFP: recorded beside MT1-MMP act inh, whose call it bears; RFP signal change, %; measured here: RFP expression control read;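 0 = vehicle wells; hits needed this value within 50% of zero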
* = called active by the depositor; i = inactive; ? = inconclusive; · = no result given; & = joins results of further samples. These rows are one share of the data, so the mix of outcomes need not match the whole.

SMILES	MT1-MMP act inh	MT1-MMP act inh RFP	eIF4H FP inh	CSC inhib	Rce1 inhib	HIV Env fusion	PABP polyA inh	UUG fidelity
Cc1ccc(S(=O)(=O)N(c2cccc(C(F)(F)F)c2)C2C=CS(=O)(=O)C2)cc1 (stereo unspecified)	4	1	-15	-2	i	·	3	·
Cc1nnsc1C(=O)NC1CCCc2c1cnn2-c1cc(F)cc(F)c1 (stereo unspecified)	-1	-6	3	2	i	-4	5	-21
CC1CCCN(c2nc3nonc3nc2N2CCCC(C)C2)C1 (stereo unspecified)	0	2	7	-5	i	·	-6	-13
O=c1[nH]c(=O)n(C(c2ccccc2)c2ccccc2)cc1Br	-7	-5	-15	-6	i	-1	3	·
COc1ccc(NC(=O)COC(=O)c2cc([N+](=O)[O-])ccc2N2CCOCC2)cc1	3	-5	1	-10	i	9	-1	-12
CCc1ccc(C(C)NC(=O)/C(C#N)=C\c2cn[nH]c2-c2ccccc2)cc1 (stereo unspecified)	-2	-7	0	23	i	-22	5	1
O=C(Cn1cnc2ccccc2c1=O)Nc1nc2ccccc2s1	-1	-1	3	0	i	0	6	·
COC(C[C@H]1O[C@@H]1[C@H](O)COCc1ccccc1)OC	0	5	-4	11	·	-3	-5	8
COC(=O)CC1Oc2ccccc2N(Cc2ccc(C)cc2)C1=O (stereo unspecified)	-2	-5	-3	-6	i	·	-10	-4
COc1ccc(-n2nc(C(=O)NCC(=O)N(C)Cc3ccccc3)c3ccccc3c2=O)c(OC)c1	-1	-1	4	-7	·	-5	8	-17
COc1ccc(C(=O)N2CCc3[nH]nc(-c4ccccc4)c3C2)cc1	-1	-7	-14	4	i	18	-1	-18
CC(C)(C)c1ccc(C(=O)NCC(=O)N2CCCC2)cc1	2	4	-6	-4	i	-5	3	-9
Cc1ccc(NCc2ccccc2OCc2ccccc2F)cc1	-7	-13	-1	33	i	?	4	-11
C[C@@H](C(O)c1ccccc1)N(C)C(=O)CCc1ccccc1 (stereo partly specified)	3	3	-12	-6	i	-6	4	-18
C/C(Cn1ncc(N2CCOCC2)c(Cl)c1=O)=N\O	-1	3	5	-9	i	10	17	8
COc1ccccc1CN1CCC(n2nccc2NC(=O)c2ccccc2Cl)CC1	0	4	5	1	i	-4	7	-11
COc1ccc(S(=O)(=O)N(C)C[C@H]2OCc3cnnn3CCCC(=O)N([C@H](C)CO)C[C@H]2C)cc1	1	2	·	·	·	3	·	2&1
Cc1nc(N2CCN(C(=O)c3ccco3)CC2)c2c3c(sc2n1)CCCC3	-5	-5	2	-13	i	31	-6	2
Cc1nc(SCc2nc3ccc(Cl)cc3[nH]2)c2oc3ccccc3c2n1	-7	-8	·	·	·	1	·	-22
CC1(C(=O)Nc2ccc(F)cc2F)CCN1C(=O)Cc1ccccc1Cl (stereo unspecified)	1	2	·	·	·	2	·	1

Another view of part of the listing above.
Each structure is followed by: MT1-MMP act inh | MT1-MMP act inh RFP | eIF4H FP inh | CSC inhib | Rce1 inhib | HIV Env fusion | PABP polyA inh | UUG fidelity
O=C(Cn1cnc2ccccc2c1=O)Nc1nc2ccccc2s1
  -1 | -1 | 3 | 0 | i | 0 | 6 | ·
COc1ccccc1CN1CCC(n2nccc2NC(=O)c2ccccc2Cl)CC1
  0 | 4 | 5 | 1 | i | -4 | 7 | -11

More compounds follow.
SMILES	MT1-MMP act inh	MT1-MMP act inh RFP	eIF4H FP inh	CSC inhib	Rce1 inhib	HIV Env fusion	PABP polyA inh	UUG fidelity
C/C(=N\OC(=O)c1ccc(F)cc1)c1ccc(F)c(F)c1	3	-3	-7	-6	i	-1	10	-17
CCC(C)NS(=O)(=O)c1ccc(OCC(=O)NCc2ccco2)cc1 (stereo unspecified)	0	3	6	-6	i	-125	4	-12
Cc1ccc(/C=C/C(=O)OCC(=O)NCc2cccs2)o1	-4	1	·	-17	·	-6	·	-9
CC(=O)Nc1cc(-c2cccc(NS(C)(=O)=O)c2)cn2c(-c3ccc(F)c(Cl)c3)cnc12	-4	0	·	·	·	-15	·	-9
O=c1[nH]c2ccccc2c2nc(-c3cccc(S(=O)(=O)N4CCCC4)c3)nn12	-1	-2	8	·	i	-9	14	-12
CCc1ccc(C(O)c2ncc(-c3cccc(F)c3)[nH]2)cc1 (stereo unspecified)	4	-5	·	·	·	16	·	-21
CC1(C)CN(c2ccsc2C(=O)O)C1=O	4	3	-3	0	i	11	3	·
CN(Cc1ccccc1)CC(O)COc1ccc(CNCCOc2cccnc2)cc1 (stereo unspecified)	3	2	-2	21	i	-8	26	·
CCN(CC)C(=O)C1CCCN(c2ccc([N+](=O)[O-])cc2/C=N/NC(=O)c2cccc([N+](=O)[O-])c2)C1 (stereo unspecified)	-2	-8	50	-1	i	25	34	-12
CCC1(O)CCCC2C3CCC4CC(=O)CCC4(C)C3C(=O)CC21C (stereo unspecified)	1	6	·	·	·	10	·	-12
COCCN(CCOC)CC(O)COC(c1ccccc1)c1ccccc1 (stereo unspecified)	0	0	6	-12	i	·	-9	-20
CCOc1ccc(C(C)C)cc1S(=O)(=O)n1nc(C)cc1C	1	1	5	·	i	·	-9	-11
CCNc1ccccc1CP(=O)(c1ccccc1)c1ccccc1O (stereo unspecified)	·	·	?	-1	i	5	?	·
CC1(C)OC2COC(c3[nH]nc4c(=O)[nH]c(=O)[nH]c34)C2O1 (stereo unspecified)	1	-2	·	·	·	10	·	-9
CCn1nc(C(=O)Nc2ccc(C)c(C)c2)c(Cl)c1Cl	0	5	-8	-2	i	-36	-1	-19
CC(CCc1ccccc1)NC(=O)CCNC(=O)c1ccccc1Cl (stereo unspecified)	2	-2	·	7	·	6	·	-15
Cc1ccc2sc(C)[n+](CCC(C)S(=O)(=O)[O-])c2c1 (stereo unspecified)	3	0	3	-4	i	-17	-5	-7
CCC(C)NC(=O)C1CC(c2ccc(OC)cc2)=NO1 (stereo unspecified)	7	7	0	-3	i	-14	-3	-8
O=C(CN1C(=O)NC2(CCCCCCC2)C1=O)Nc1c(Cl)cccc1Cl	9	4	·	-6	·	·	·	-10
Cc1cccc(N2C(=O)C(O)=C(C(=O)c3cccs3)C2c2ccc(F)cc2)n1 (stereo unspecified)	-2	-2	4	3	i	8	-11	-8
Cc1nnc(NC(=O)CSc2nc(N)c(NC(=O)c3cccs3)c(=O)[nH]2)s1	-2	2	0	-9	i	2	-3	-17
CC1CC2c3cccc(C(=O)O)c3C(=O)N2c2ccc(Cl)cc21 (stereo unspecified)	-2	-2	-3	·	i	-1	-7	-8
COc1ccc2oc(C(=O)OCC(=O)Nc3ccc(C)c(S(=O)(=O)N4CCOCC4)c3)c(C)c2c1	-3	0	·	·	·	?	·	-13
CC(=O)c1cccc(NC(=O)CN(C)S(=O)(=O)c2ccccc2)c1	-1	1	-1	-3	i	22	-5	-17
Cc1ccc(C(=O)N2CCC(C(=O)Nc3cccc([N+](=O)[O-])c3)CC2)cc1	6	-2	-7	-7	i	7	-13	8
CCc1ccc(N(C(=O)c2ccco2)C(C(=O)NC2CCCC2)c2ccco2)cc1 (stereo unspecified)	-3	0	·	-5	i	·	·	-14
CC(C)c1ccc(C(O)Cc2nc3ccccc3n2C)cc1 (stereo unspecified)	3	-3	1	-18	i	-79	-6	·
CCn1c(C)c(C)c2cc(C(=O)NCCCN3CCCCC3)ccc21	3	5	6	·	i	28	0	-2
C/C(=N\NC(=O)c1ccccc1)c1ccc(C)c([N+](=O)[O-])c1	8	7	-6	-1	i	·	-12	·
COc1ccc(CC(=O)Nc2cccc(C(C)=O)c2)cc1S(=O)(=O)N1CCOCC1	0	-2	·	-5	·	6	·	-25
COc1cccc(C(=O)/C=C/c2ccc(SC)cc2)c1	1	4	-7	11	i	·	-15	0
Cc1cc(-n2cnc(-c3cn[nH]c3C)n2)no1	1	-5	6	-20	i	0	-5	-8
CC(=O)Oc1ccc2nc(/C=C/c3ccccc3)oc(=O)c2c1	2	3	-13	9	i	-2	3	-25
Cc1ccc(-n2nc(C(=O)O)c3ccccc3c2=O)cc1C	4	4	6	-17	i	·	10	-18
COc1cccc(-c2cc3nc(C)cc(N4CCN(C(=O)c5ccoc5)CC4)n3n2)c1	2	-1	·	·	·	11	·	-3
Cc1nc(CC(=O)c2ccc(O)c(C)c2O)cs1	-5	-4	6	-13	i	4	-4	-14
O=C(c1ccccc1)C(CN1CCCCC1)c1ccccc1 (stereo unspecified)	0	-18	·	·	·	-141	·	-15
CC(C)(C)CC(C)(C)N=C1Nc2cc(Cl)c(Cl)cc2NC12C[C@H]1CCC(=O)N3CC[C@@H](C2)[C@@H]13 (stereo partly specified)	-4	-9	·	·	·	58*	·	-7
CC(C)Oc1ccc(CNS(=O)(=O)c2csc(C(N)=O)c2)cc1	5	-14	-4	19	i	-5	-3	·
CS(=O)(=O)N(CC(=O)Nc1ccccc1)Cc1ccc(Cl)cc1	0	-3	-2	·	i	·	0	-18

Filtered by structure, those above with a COOH group
SMILES	MT1-MMP act inh	MT1-MMP act inh RFP	eIF4H FP inh	CSC inhib	Rce1 inhib	HIV Env fusion	PABP polyA inh	UUG fidelity
CC1(C)CN(c2ccsc2C(=O)O)C1=O	4	3	-3	0	i	11	3	·
CC1CC2c3cccc(C(=O)O)c3C(=O)N2c2ccc(Cl)cc21 (stereo unspecified)	-2	-2	-3	·	i	-1	-7	-8
Cc1ccc(-n2nc(C(=O)O)c3ccccc3c2=O)cc1C	4	4	6	-17	i	·	10	-18
